SARS PLpro yeast: SARS-CoV PLP inhibition in yeast; S. cerevisiae expressing SARS-CoV PLpro, growth rescue; control for the full effect not named in the record; Potency, µM (doses to about 32.9 µM), for the others: top-dose activity, positive = growth rescue; 0.19% of 330,000 active; AID 485353; note: 0% is about no effect; nearly all actives have a fitted effect of over 55% in size; growth read by luminescence after 48 h
Cruzain inh Det: inhibitors of Trypanosoma cruzi cruzain with detergent | purified cruzain, Z-FR-AMC fluorescence, 0.01% Triton | Potency, µM, for inactives: max response, negative = inhibition, usual class: inhibitors | AID 1478 | 0.43% of 200,000 active; active = well fitted curve in the direction sought with a large enough effect; inconclusive = small, poorly fitted or top-dose-only effect, or another doubt; inactive = no such curve, though single readings can be large; an effect the other way counts as inactive or inconclusive;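 note: plate controls were neutral wells for no effect and buffer without enzyme for full effect; nearly all actives have a fitted effect of over 40% in size; top concentration of the series not given in the record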
Target sequence (P25779 123-467 limits assumed): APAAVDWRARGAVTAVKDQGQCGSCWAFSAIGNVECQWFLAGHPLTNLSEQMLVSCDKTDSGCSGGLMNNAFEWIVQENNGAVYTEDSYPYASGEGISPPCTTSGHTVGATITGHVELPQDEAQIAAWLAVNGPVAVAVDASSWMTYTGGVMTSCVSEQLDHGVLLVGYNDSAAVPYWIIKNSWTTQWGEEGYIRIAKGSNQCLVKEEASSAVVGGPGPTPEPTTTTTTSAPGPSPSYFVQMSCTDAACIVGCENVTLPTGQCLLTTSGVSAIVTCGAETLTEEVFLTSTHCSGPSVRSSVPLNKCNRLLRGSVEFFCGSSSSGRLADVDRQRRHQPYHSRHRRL
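Compounds were screened in titration against cruzain (1.5 nM) with 0.01% Triton X-100 to counter colloidal aggregation. Activity was the AMC fluorescence increase over 60 s after adding 2 uM Z-FR-AMC at pH 5.5.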
Cruzain inh noDet: blocks cruzain activity in detergent-free assay | purified cruzain, Z-FR-AMC fluorescence, no detergent | Potency, µM, for the others: max response, negative = inhibition, most hits filed as inhibitors | 2.3% of 200,000 active | AID 1476; active = well fitted curve in the direction sought with a large enough effect; inconclusive = small, poorly fitted or top-dose-only effect, or another doubt; inactive = no such curve, though single readings can be large; an effect the other way counts as inactive or inconclusive;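 note: plate controls were enzyme without inhibitor for no effect and buffer without enzyme for full effect; nearly all actives have a fitted effect of over 40% in size; top concentration of the series not given in the record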
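Purified cruzain at 1.5 nM, pre-incubated 15 min with compound at room temperature in 100 mM sodium acetate pH 5.5, 5 mM DTT, 0.00005% Triton X-100. Reaction started with 2 uM Z-FR-AMC; AMC fluorescence increase over 60 s gives rate.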
LASV entry inh: blocks Lassa virus binding to or entry into cells. Lassa virus pseudotype entry inhibition, cell reporter; control for the full effect not named in the record. Potency, µM (highest dose often 37.9 µM), for the others: at the top dose activity change, negative = inhibition, usual class: inhibitors. 1.2% of 300,000 active. AID 540256; active means well fitted inhibition curve with a large enough effect; inconclusive means small, poorly fitted or top-dose-only effect, or effect the other way; inactive means flat fitted curve, though single readings scatter; tested in HEK293 cells; note: % is set by controls: 0 for no effect and ±100 for the full control effect; nearly all actives have a fitted effect of over 50% in size; luciferase read-out
Marburg entry inh: Marburg virus entry inhibition. 1.8% of 300,000 active. Marburg virus pseudotyped entry inhibition, cell reporter; control for the full effect not named in the record; about a third of the inactives were read at about 46 µM. AID 540276. Potency, µM (titrated, usually from 37.8 µM), without a hit: top-dose activity change, negative = inhibition, actives largely listed as inhibitors; active = well fitted inhibition curve with a large enough effect; inconclusive = small, poorly fitted or top-dose-only effect, or effect the other way; inactive = flat fitted curve, though single readings scatter; tested in HEK293 cells; about a fifth of its hits are not listed in these tables; note: % is set by controls: 0 for no effect and ±100 for the full control effect; luciferase read-out
NS1 function inh: blocks influenza NS1 protein function; S. cerevisiae slowed by influenza A NS1, growth recovery by OD600; Potency, µM (titrated, usually from 46.1 µM), without a hit: top-dose activity, positive = more growth; 0.4% of 270,000 active; note: actives are rising curves; nearly all actives have a fitted effect of over 50% in size
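Compounds were scored for reversing the slow growth caused by influenza A NS1 in S. cerevisiae, measured by optical density at 600 nm. Assay medium contained 2% galactose at pH 6.0; NS1-free yeast of the same strain were the positive control.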
2A StopGo: FMDV 2A StopGo reporter, luciferase signal | human cells with a luciferase reporter of 2A StopGo recoding; control for the full effect not named in the record | Potency, µM (highest dose often 57.9 µM), without a hit: at the top dose signal change, negative = less light | 1.2% of 410,000 active; active = well fitted falling curve with a large enough effect; inconclusive = small, poorly fitted or top-dose-only effect; inactive = no such curve, though single readings can be large or run the other way; tested in HEK293T cells; note: % is set by controls: 0 for no effect and ±100 for the full control effect; nearly all actives have a fitted effect of over 45% in size; luciferase light after 4 h
RE007 growth inh: less growth of the S. pombe RE007 Vpr strain. S. pombe RE007 Vpr strain, BacTiter-Glo ATP luminescence, 24 h; control for the full effect not named in the record. Potency, µM (titrated, usually from 92.2 µM), for the others: at the top dose activity change, negative = less growth. 0.21% of 360,000 active. AID 651644; active = well fitted falling curve with a large enough effect; inconclusive = small, poorly fitted or top-dose-only effect; inactive = no such curve, though single readings can be large or run the other way;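 note: % is set by controls: 0 for no effect and ±100 for the full control effect; nearly all actives have a fitted effect of over 50% in size; the assay follows cell death caused by Vpr and the record does not say whether a fall means rescue or toxicity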
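Fission yeast strain RE007, carrying one chromosomally integrated HIV-1 vpr copy, was seeded at OD 0.01 in PMG+AL medium with 23 nL pinned compound. After 24 h at 30 °C and 99% humidity, viability was read by BacTiter-Glo luminescence.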
The depositor's hits bear a star; u = inconclusive; x = no result given; [ ] = dose if it differs, or a comment. Unless noted, calls come from the whole dose curve; as a rule, active means well fitted rising curve with a large enough effect; inconclusive means small, poorly fitted or top-dose-only effect; inactive means no such curve, though single readings can be large or run the other way. Potency is the fitted concentration of half-maximal effect.

SMILES | SARS PLpro yeast | Cruzain inh Det | Cruzain inh noDet | LASV entry inh | Marburg entry inh | NS1 function inh | 2A StopGo | RE007 growth inh
CCOP1(=O)OCC2OC(n3cnc4c(N)ncnc43)C(O)C2O1 (centres undefined) | 1% | x | x | 3% | 7%[14.2 µM] | 2% | -13% | 4%
CC(C)Sc1ncc(S(=O)(=O)c2ccccc2)c(=O)[nH]1 | 2% | x | x | 4%[46.1 µM] | -1%[46.1 µM] | x | -13% | 5%
C/C(=N\S(=O)(=O)c1ccc(C)cc1)NC(=S)Nc1ccc(C)cc1 | 0% | x | x | x | x | 0% | 23% | -13%
COc1ccc(N2CC(NC(=O)c3ccc4c(c3)OCO4)CC2=O)cc1 (centres undefined) | x | 2.2% | 13% | 1%[46.1 µM] | x | x | -9% | x
COc1ccc(C(=NN)c2ccc(OC)cc2)cc1 | x | x | x | u | u | x | 44%[activator] | 4%
Cc1cc(C)c(CSc2nnc(C)n3c2cc2occc23)c(C)c1 | x | -7.1% | u | 3%[46.1 µM] | x | x | -4% | x
Cc1ccc(OCC(=O)NNC(=O)c2ccc(-n3cncn3)c([N+](=O)[O-])c2)cc1 | 2% | x | x | 2% | -3% | x | -18% | 5%
CCNC(=O)C1CC(=O)N(CCCc2ccccc2)C(=Nc2ccccc2)S1 (centres undefined) | -1% | x | x | -6%[46.1 µM] | 11%[46.1 µM] | -14% | -4% | 1%
CN(CC(=O)N1CCN(c2ccccc2)CC1)C1CCCc2ccccc21 (centres undefined) | 0% | x | x | -1%[46.1 µM] | -2%[46.1 µM] | 3% | 10% | -6%
CC1CN(CCc2ccccc2)c2nc3c(c(=O)n(CC(N)=O)c(=O)n3C)n2C1 (centres undefined) | 12% | x | x | x | x | -14% | 7% | 2%
Cc1ccc(C)c(S(=O)(=O)N2CCN(C(=O)c3cccnc3)CC2)c1 | 2% | x | x | -32%[46.1 µM] | 2%[46.1 µM] | 3% | 2% | -13%
N#C/C(=C\c1ccc(OCc2ccc(C(=O)O)cc2)cc1)C(=O)NCc1ccccc1 | 1% | x | x | 3%[46.1 µM] | -1%[46.1 µM] | 18% | 11% | 4%
CC(CCCC(C)(C)O)NC(=O)c1ccc2oc(CCc3ccccc3)nc2c1 (centres undefined) | -1% | x | x | x | x | -11% | u | 1%
Cc1ccc(C(=O)CSc2ccc(-c3cccnc3)nn2)cc1 | -1% | x | x | -22%[46.1 µM] | 1%[46.1 µM] | x | -29% | -18%
CC(=O)N1CCN(S(=O)(=O)c2cccc(C(=O)NNC(=O)COc3ccc(F)cc3)c2)CC1 | -2% | x | x | u | 6% | x | -23% | 1%
CCCN1C(=O)c2ccccc2NC1c1ccc(OC)cc1OC (centres undefined) | 28% | -4.5% | 5% | 5% | -7% | -2% | x | 20%
COc1ccc(N2CCN(C(=O)NC(=O)c3ccc(Cl)cc3)CC2)cc1 | 2% | x | x | 16%[46.1 µM] | 6%[46.1 µM] | 18% | 17% | 17%
COCCCNC(=O)CSC1=Nc2ccccc2C2=NC(c3ccccc3)C(=O)N12 (centres undefined) | 1% | x | x | 7% | 3% | x | 19% | 7%
Cc1cc(C)cc(NC(=S)NCc2cccs2)c1 | -26% | -5.3% | 4% | -21% | u | 3% | 51%[activator] | 2%
CCOC(=O)c1c(N2C(=O)Nc3ccccc3N2O)n[nH]c1-c1cccc(Cl)c1 | -15% | x | x | 25%[46.1 µM] | -14%[46.1 µM] | x | -7% | 3%
CCOC(=O)c1cc(CNC(=O)c2c(C)oc3c2CCCC3)c(C)o1 | -2% | -4.6% | 7% | u | u | 8% | 0% | 19%
COc1cccc(NC(=O)c2cccc(S(=O)(=O)N3CCN(Cc4ccccc4)CC3)c2)c1 | -13% | x | x | u | u | x | -3% | 2%
CC(=O)Nc1cccc(N2C(=O)CCC2=O)c1 | -1% | 2.3% | -1% | 9% | 12% | 8% | -11% | -9%
O=S(=O)(Nc1ccncc1Cl)c1cc(Cl)ccc1Cl | 0% | x | x | 2%[46.1 µM] | -4%[46.1 µM] | 0% | -2% | 9%
O=C1OCCN1N1CCOC1=O | x | x | x | 0%[46.1 µM] | 43%[46.1 µM] | x | 7% | 3%
CN(C)Cc1c(C(=O)N/N=C/c2ccccc2OCc2c(F)cccc2Cl)nnn1-c1nonc1N | 1% | x | x | u | u | -15% | u | 13%
COc1ccc(CCn2c(C)cc(C(=O)COC(=O)c3ccc(NC(=O)CC#N)cc3)c2C)cc1 | -7% | x | x | x | x | -11% | -29% | 2%
COc1ccc(-c2cc(=O)oc3cc(OCC(=O)NCC4CCC(C(=O)O)CC4)ccc23)cc1 (centres undefined) | 6% | x | x | x | x | 29% | -1% | 0%
CCOc1cc(C(=O)N2CCN(C/C=C/c3ccccc3)CC2)cc(OCC)c1OCC | 4% | 2.9% | u | -26% | u | -6% | x | 3%
Cc1cc(NC(=O)C2CCN(C(=O)c3ccco3)CC2)ccc1Br | x | x | x | 16% | 15% | x | 7% | 7%
CCN(CC)C(=O)Cc1cc(C(=O)O)c2ccccc2n1 | 12% | 4.9% | -6% | -11% | 3% | 4% | x | 7%
CCOC(=O)CNC(=S)N(CCCN1CCN(C)CC1)Cc1cccs1 | 1% | x | x | x | x | 13% | 7% | 19%
CCOC(=O)c1c(C)nc2sc3c(=O)n(-c4ccc(C(C)=O)cc4)cnc3c2c1-c1ccc(OC)cc1 | 3% | -3.8% | u | -12% | 8% | 12% | -21% | -6%
CN(C)C(=O)N1CCC(C(=O)NCC2CCCO2)CC1 (centres undefined) | 1% | 2.1% | 1% | u | 21% | 4% | -3% | 4%
Cn1nc(-c2ccc(NCCO)c([N+](=O)[O-])c2)c2ccccc2c1=O | 0% | x | x | u | -1%[46.1 µM] | 2% | 7% | 11%
COCCN(C(=O)COC(=O)c1cc(C)n(-c2ccccc2)c1C)c1c(N)n(Cc2ccccc2)c(=O)[nH]c1=O | 0% | x | x | -22% | -13% | x | -15% | 10%
O=C(O)c1ccc(N/N=C/C=C/c2ccccc2[N+](=O)[O-])cc1 | 2% | x | x | u | 3% | x | 54%[activator] | 17%
O=C(N/N=C/c1ccc(-c2cccc([N+](=O)[O-])c2)o1)c1cccs1 | 0% | x | x | -3% | u | 6% | 29% | 7%
CN(C)S(=O)(=O)c1ccc2c(c1)N(CC(=O)N1CCC(C(N)=O)CC1)CCS2 | x | -1.6% | 8% | 8%[46.1 µM] | x | x | -7% | x
CC(C(=O)O/N=C(\N)c1cccnc1)c1ccc([N+](=O)[O-])cc1 (centres undefined) | -3% | x | x | 5% | 9%[46.1 µM] | -3% | -8% | 9%
COc1ccc(CCN2CCCn3c2nc2c3c(=O)[nH]c(=O)n2C)cc1OC | 0% | x | x | x | x | 3% | 0% | 5%
O=[N+]([O-])c1cccc(-c2nnc3cccc(Cl)n23)c1 | 2% | x | x | 13%[46.1 µM] | -5%[46.1 µM] | 2% | 22% | -7%
COc1ccc(OC)c(NC(=O)NCCN2CCN(c3ccccc3)CC2)c1 | 0% | x | x | x | x | 9% | -12% | -5%
CCN1C(=O)c2cccc3c(N)ccc1c23 | -9% | -2.2% | -9% | x | x | 0% | -6% | 2%
CCCN1CC(=O)N2C(c3cccc(OC)c3OC)c3[nH]c4ccccc4c3C[C@H]2C1=O (some centres undefined) | 14% | x | x | x | x | 7% | 50%[activator] | 3%

Part of the list above in order of formula weight, falling:
SMILES | SARS PLpro yeast | Cruzain inh Det | Cruzain inh noDet | LASV entry inh | Marburg entry inh | NS1 function inh | 2A StopGo | RE007 growth inh
COc1ccc(CCn2c(C)cc(C(=O)COC(=O)c3ccc(NC(=O)CC#N)cc3)c2C)cc1 | -7% | x | x | x | x | -11% | -29% | 2%
COCCCNC(=O)CSC1=Nc2ccccc2C2=NC(c3ccccc3)C(=O)N12 (centres undefined) | 1% | x | x | 7% | 3% | x | 19% | 7%
Cc1cc(C)c(CSc2nnc(C)n3c2cc2occc23)c(C)c1 | x | -7.1% | u | 3%[46.1 µM] | x | x | -4% | x
CC(C(=O)O/N=C(\N)c1cccnc1)c1ccc([N+](=O)[O-])cc1 (centres undefined) | -3% | x | x | 5% | 9%[46.1 µM] | -3% | -8% | 9%

Additional entries follow.
SMILES | SARS PLpro yeast | Cruzain inh Det | Cruzain inh noDet | LASV entry inh | Marburg entry inh | NS1 function inh | 2A StopGo | RE007 growth inh
COc1ccc(CNc2oc(COc3cccc(C)c3)nc2C#N)cc1 | x | -2.7% | 17% | -19%[46.1 µM] | -6%[46.1 µM] | x | -20% | x
CC(C)OP(=O)(c1ccc(N(C)C)cc1)C(O)c1ccc(Br)cc1 (centres undefined) | 1% | x | x | 2% | 2%[46.1 µM] | 1% | 3% | 11%
COc1ccc(CNC2CCN(Cc3ccccc3)CC2)cc1 | 0% | x | x | x | x | u | -13% | 0%
CCCCn1c(N)c(N(CC(C)C)C(=O)c2cc(-c3ccncc3)nc3ccccc23)c(=O)[nH]c1=O | -15% | x | x | 4% | u | x | 7% | 0%
O=C(Nc1cccc(NC(=O)c2ccc(-c3ccc(Br)cc3)o2)c1)c1ccco1 | -4% | -7.0% | 32µM* | u | u | 22% | -10% | -6%[3.69 µM]
COC(=O)c1ccc(C2C(Oc3ccccc3)C(=O)N2CCc2ccc(F)cc2)cc1 (centres undefined) | -2% | -2.9% | -1% | -13% | u | 2% | 32%[activator] | 4%
O=C(COc1ccc(F)cc1)Nc1ccccc1C(=O)OCc1cc(=O)n2ccsc2n1 | x | 2.1% | -2% | u | x | x | -23% | x
COc1ccc(C(=O)Oc2ccc(C(c3c(C)[nH][nH]c3=O)c3c(C)[nH][nH]c3=O)cc2)cc1 | x | -5.2% | 8% | 6%[46.1 µM] | u | x | 10% | x
C(CCc1nn[nH]n1)CCC1CCCCC1 | x | x | x | 9%[46.1 µM] | 1%[46.1 µM] | x | 4% | 45%
Clc1ccsc1-c1ccc2ccccc2n1 | 1% | -2.0% | -4% | u | u | -2% | 57%[activator] | -4%
